# HSV augment – enhancers of HSV replication in host cells, fold increase, host cell viability; HSV replication augmentation in cells; maximum fold increase; 220,000 compounds, 0.005% hits;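 active means peak rise of 1.5-fold or more in the series; tested in PC3 cells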;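 further: first round at 10 µM; read as green reporter fluorescence; hits show the peak of a series up to 25 µM; 1 = signal of infected wells without compound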
# PKD1 kinase inh – inhibitors of human PKD1 kinase, biochemical, fluorescence polarization | Serine/threonine-protein kinase D1 (Homo sapiens), Q15139 | PKD1 kinase fluorescence polarization assay | inhibition, %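 (about 10 µM by stock and volumes)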 | 200,000 compounds, 0.056% hits | AID 797, 2007;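 active means inhibition of 50% or more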;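 further: controls were vehicle for no effect and a reference inhibitor for full effect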
# GALR2 ag – GALR2 receptor agonists, primary screen, cell-based; Galanin receptor type 2 (Homo sapiens), O43603; GALR2-expressing cells, agonist activation read-out; activation, %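 (tested at 5 µM)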; 140,000 compounds, 0.48% hits; AID 803, 2007;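 active means above mean plus 3 SD of all compounds, about 5% in these data, not always enough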;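 further: 0% = vehicle buffer wells and 100% = reference agonist at full effect; tested in CHO reporter cells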
# Target sequence (O43603 whole entry, looked up): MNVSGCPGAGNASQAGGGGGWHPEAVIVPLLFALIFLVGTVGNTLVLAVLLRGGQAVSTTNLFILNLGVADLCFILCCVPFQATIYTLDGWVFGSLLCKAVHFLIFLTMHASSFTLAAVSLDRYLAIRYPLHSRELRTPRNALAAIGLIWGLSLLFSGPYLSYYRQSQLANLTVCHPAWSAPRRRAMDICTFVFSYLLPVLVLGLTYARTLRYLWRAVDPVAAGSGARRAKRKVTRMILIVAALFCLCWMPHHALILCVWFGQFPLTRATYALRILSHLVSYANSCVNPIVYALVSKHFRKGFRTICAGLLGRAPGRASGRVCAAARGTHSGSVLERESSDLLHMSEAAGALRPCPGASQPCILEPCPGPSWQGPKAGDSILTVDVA
# RGS16-Gao – modulators of RGS16 binding to Galphao, primary screen, biochemical, human proteins, multiplexed bead flow cytometry | Regulator of G-protein signaling 16 (Homo sapiens) + Guanine nucleotide-binding protein … | bead-based flow cytometry RGS16-Galphao binding, fluorescence; actives lie on both sides | binding response (% of control), % at 10 µM | 220,000 compounds, 0.38% hits;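 active means below 25% or above 175%, edge rows of some plates excepted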;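 further: Galphao activated by GDP with aluminum fluoride before binding; 100% = wells without compound and 0% = beads without RGS; some results beyond the cut were filed as inactive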
# Target sequence (O15492 whole entry, looked up): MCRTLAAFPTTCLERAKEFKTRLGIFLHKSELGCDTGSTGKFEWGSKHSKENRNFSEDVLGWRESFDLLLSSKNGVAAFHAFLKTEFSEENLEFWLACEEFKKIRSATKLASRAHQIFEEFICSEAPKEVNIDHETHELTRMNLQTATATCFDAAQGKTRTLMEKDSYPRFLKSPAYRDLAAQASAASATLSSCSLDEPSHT
# Target sequence (P09471 whole entry, looked up): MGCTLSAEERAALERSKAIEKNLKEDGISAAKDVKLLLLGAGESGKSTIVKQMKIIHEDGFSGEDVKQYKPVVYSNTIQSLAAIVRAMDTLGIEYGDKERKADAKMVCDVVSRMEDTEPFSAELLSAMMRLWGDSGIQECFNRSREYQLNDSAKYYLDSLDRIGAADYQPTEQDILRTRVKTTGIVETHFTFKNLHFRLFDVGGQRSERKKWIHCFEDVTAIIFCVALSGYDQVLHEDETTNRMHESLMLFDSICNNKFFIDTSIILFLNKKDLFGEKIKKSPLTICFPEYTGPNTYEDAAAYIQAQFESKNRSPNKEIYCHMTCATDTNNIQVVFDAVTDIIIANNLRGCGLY
# INS promoter inh – inhibitors of insulin promoter-driven GFP, primary screen, imaging, TRM-6 cells (human fetal islet line), eGFP reporter, cell count. reporter expression induced with tamoxifen. inhibition, % at 2 µM. 130,000 compounds, 0.9% hits. AID 1273, 2008;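 active means inhibition above the mean plus 3 SD, with well images judged a real hit on visual review, cut at about 60% in these data, passing the limit was not always enough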
# INS promoter inh cell count – recorded beside INS promoter inh, whose call it bears; normalized cell count, %; measured here: cell count, toxicity; reference of the scale not given here;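 cells exposed to compound for 48 h; stained nuclei by imaging scaled within each plate; lower means fewer cells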
# HSV augment primary fold – further read-out of HSV augment, marked with its call; fold increase; compound at 10 µM; measured here: primary screen fold increase 10 uM; tested in PC3 cells;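 GFP signal in the first replicate; 1 = infected wells without compound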
# Numbers without * were called inactive; i = inactive; x = not tested or not shown; & = joins results of further samples. An excerpt, so the mix of outcomes need not match the whole.
no.	compound	HSV augment	HSV augment primary fold	PKD1 kinase inh	GALR2 ag
1	CC(C)c1ccc(-n2c(O)c(/C=N/NC(=O)c3ccncc3)c(=O)[nH]c2=O)cc1	x	x	2.8	0.5
2	COc1ccc(N2CCN(CCCN)CC2)cc1	i	0.89	-1.9	-1.5
3	O=C1C(=O)c2ccccc2-c2ccccc21	i	0.58	-2.2	-0.3
4	O=C1CC(N2CCC(n3c(=O)[nH]c4ccccc43)CC2)C(=O)N1c1ccc(F)cc1 (stereo not given)	i	0.96	-4.1	-1.3
5	C=CCn1c(O)c(C(=O)CCCCCC)c(=O)[nH]c1=O	i	1.02	-11.6	-0.4
6	O=c1c2ccc(Cl)cc2[nH]c(=S)n1-c1cccnc1	i	0.94	-5.1	x
7	Cc1cc(OCc2cc(C(=O)O)oc2C)c2c3c(c(=O)oc2c1)CCCC3	i	0.85	-3.3	-1.5
8	Cc1ccsc1C(=O)C1CCCN(Cc2cn(C)nc2C)C1 (stereo not given)	i	1.06	8.3	x
9	O=C(COc1ccccc1)N1CCN(CC2CC3C=CC2C3)CC1 (stereo not given)	i	0.79	-3.6	-1.1
10	Cc1nn(Cc2ccccc2Cl)c(C)c1C(=O)OCC(=O)NC1CCCC(C)C1C (stereo not given)	i	0.96	-0.1	-0.3

no.	RGS16-Gao	INS promoter inh	INS promoter inh cell count
1	97.4	x	x
2	x	8.3	85.9
3	108.1	-17.4	100.0
4	93.9	43.8	133.9
5	95.6	10.7	84.1
6	106.8	x	x
7	92.7	-30.0	51.4
8	93.8	x	x
9	105.7	-13.5	109.2
10	95.8	-12.9	106.7

# The list goes on.
no.	compound	HSV augment	HSV augment primary fold	PKD1 kinase inh	GALR2 ag
11	COc1ccc(C(=O)CC2C(=O)N(C)C(=O)N(C)C2=O)cc1	i	0.96	-11.0	-0.9
12	CCN1CCc2ccccc2C1	i	1.29	x	x
13	CN1C(=O)CN=C(c2ccc(Cl)cc2)c2cc(Cl)ccc21	i	0.89	-5.1	0.5
14	O=C(N/N=C/c1c(O)n(CCC2=CCCCC2)c(=S)[nH]c1=O)c1ccccc1	i	1.26	8.5	1.1
15	O=C(Cn1c(=O)n(CC2CS2)c2ccccc21)N1CCCCCC1 (stereo not given)	i	0.67	-5.6	x
16	C=CCN1C(=O)NC(=O)/C(=C\c2ccc(-c3ccccc3[N+](=O)[O-])o2)C1=O	i	1.02	3.0	x
17	Cc1nc2ccccc2c(=O)n1-c1cc(F)ccc1F	i	0.96	-3.5	x
18	Cc1ccc(CC2C(=O)N(C)C(=O)N(C)C2=O)s1	i	1.17	-3.5	-1.1
19	CCOP(=O)(OCC)c1ccc(OP(=O)(c2cccc([N+](=O)[O-])c2)c2cccc([N+](=O)[O-])c2)cc1	i	1.16	x	x
20	CSc1ccccc1C(=O)C1CCCN(Cc2ccncc2)C1 (stereo not given)	i	1.02	3.4	x

no.	RGS16-Gao	INS promoter inh	INS promoter inh cell count
11	92.5	8.0	145.4
12	103.1	x	x
13	108.2	-4.5	58.0
14	105.2	10.2	102.0
15	79.5	x	x
16	99.7	x	x
17	109.5	33.3	103.0
18	98.2	-17.5	100.0
19	89.8	x	x
20	103.0	x	x

# Additional compounds
no.	compound	HSV augment	HSV augment primary fold	PKD1 kinase inh	GALR2 ag
21	COc1cc2[nH]c(=S)n(-c3ccccc3)c(=O)c2cc1OC	i	1	-0.1	x
22	Cn1c(CN2CCN(C(=O)COc3ccccc3)CC2)nc2cc([N+](=O)[O-])ccc21	i	0.93	-3.5	-0.5
23	COc1cccc(CCNCc2c(F)cccc2F)c1	i	0.91	1.2	x
24	COc1cc(CN2C(=O)NC(=O)C3(Cc4cc(C)ccc4N(C)C3)C2=O)cc(OC)c1 (stereo not given)	i	0.98	-3.4	-1.1
25	CCc1cc2c(N3CCN(C)CC3)ncnc2s1	i	1.05	-3.8	-0.4
26	c1ccc(NC2=NCCS2)cc1	i	0.92	x	x
27	CCc1ccccc1N1C(=O)CC(=O)NC1=O	x	x	-7.7	x
28	CC1(C)CC(N(CCc2ccccc2)Cc2ccccc2)CCO1 (stereo not given)	i	0.99	x	x
29	CC(=O)c1ccc2c(c1)OCO2	i	0.87	-3.5	-0.2
30	CN(C)P(=NC(=S)c1cccn1C)(N(C)C)N(C)C	i	0.92	-4.5	-0.2

no.	RGS16-Gao	INS promoter inh	INS promoter inh cell count
21	104.8	-41.7	150.6
22	96.2	-100.0	100.0
23	99.8	x	x
24	98.6	54.4	148.4
25	102.6	-43.8	128.7
26	87.9	x	x
27	109.0	23.1	69.0
28	97.4	x	x
29	126.2	0.0	84.8
30	107.2	x	x

# Two compounds from above, reduced to RGS16-Gao and GALR2 ag:
no.	smiles	RGS16-Gao	GALR2 ag
25	CCc1cc2c(N3CCN(C)CC3)ncnc2s1	102.6	-0.4
23	COc1cccc(CCNCc2c(F)cccc2F)c1	99.8	x

# Reprinted at random: 4 entries already listed.
no.	compound	HSV augment	HSV augment primary fold	PKD1 kinase inh	GALR2 ag
24	COc1cc(CN2C(=O)NC(=O)C3(Cc4cc(C)ccc4N(C)C3)C2=O)cc(OC)c1 (stereo not given)	i	0.98	-3.4	-1.1
30	CN(C)P(=NC(=S)c1cccn1C)(N(C)C)N(C)C	i	0.92	-4.5	-0.2
21	COc1cc2[nH]c(=S)n(-c3ccccc3)c(=O)c2cc1OC	i	1	-0.1	x
26	c1ccc(NC2=NCCS2)cc1	i	0.92	x	x

no.	RGS16-Gao	INS promoter inh	INS promoter inh cell count
24	98.6	54.4	148.4
30	107.2	x	x
21	104.8	-41.7	150.6
26	87.9	x	x

# More compounds follow.
no.	compound	HSV augment	HSV augment primary fold	PKD1 kinase inh	GALR2 ag
31	O=C1NC(=S)NC(=O)C1C/C=C/c1ccccc1	i	0.91	-3.5	0.4
32	CN1CCC2(CC1)CC(NC=O)c1ccccc1O2 (stereo not given)	i	0.95	1.3	x
33	OC(c1ccc(F)cc1)(c1ccc(F)cc1)[C@@H]1CCCN1	i	0.97	7.1	0.3
34	O=c1c2ccccc2nc(-c2ccc(-c3ccccc3)cc2)n1-c1ccncc1	i	0.96	-6.9	-1.4
35	COCCN1C(=O)NC(=O)/C(=C\c2ccc(Br)cc2)C1=O	i	1.05	-1.0	x
36	CC[n+]1c(SC)ccc2cc(OC)ccc21	i	0.9	-9.8	-0.1
37	CC(NC(=O)Oc1ccccc1)C(c1cccs1)N1CCOCC1 (stereo not given)	i	1.05	-5.0	-0.6
38	COc1ccccc1CCNC1C2CC3CC(C2)CC1C3 (stereo not given)	i	0.86	2.1	0.2
39	COc1ccc(CCn2c(O)c(/C=N/NC(=O)c3ccncc3)c(=O)[nH]c2=O)cc1OC	i	1.07	-8.5	-0.8
40	CN1C(=O)N(C)C(=O)C(CCc2ccncc2)(Cc2ccc3c(c2)OCO3)C1=O	x	x	-0.8	-1.5

no.	RGS16-Gao	INS promoter inh	INS promoter inh cell count
31	106.2	16.7	110.7
32	42.7	x	x
33	83.6	22.2	91.2
34	98.4	15.4	62.4
35	105.6	27.8	181.8
36	102.2	-63.1	155.3
37	103.1	-18.8	137.8
38	110.8	-13.3	181.0
39	99.6	-6.2	79.7
40	92.9	x	x

# (cont.)
no.	compound	HSV augment	HSV augment primary fold	PKD1 kinase inh	GALR2 ag
41	CCOC(=O)c1[nH]ncc1CN1CCCC(C(=O)c2cccc(Cl)c2)C1 (stereo not given)	i	0.85	x	x
42	O=[N+]([O-])c1ccc(C2[C@H]3C(c4ccccc4)=NC4(CCCC4)N23)cc1 (stereo not given in full)	i	1	-6.0	0.5
43	CN1CCN(C(=O)COc2ccc(-c3nc4ccccc4s3)cc2)CC1	x	x	9.5	-1.2
44	CC(=O)N1N=C2C3CCN(CC3)C2C1c1ccccc1 (stereo not given)	i	0.93	-7.7	-0.2
45	Cc1nc2c(c(=O)[nH]1)C(c1ccccc1Cl)c1c(c3ccccc3oc1=O)O2 (stereo not given)	i	0.94	x	x
46	CN(C)C(=O)Oc1c(Cl)cc(Cl)c2ccccc12	i	1.01	4.4	-4.7
47	O=c1c2ccccc2nc(/C=C/c2ccc([N+](=O)[O-])o2)n1-c1ccc(O)cc1	i	0.92	-2.3	x
48	CNc1cc(N2CCN(C)CC2)ccc1[N+](=O)[O-]	i	1.06	-6.2	x
49	CC(=O)[C@@]1(O)CC[C@H]2[C@@H]3CC=C4C[C@@H](O)CC[C@]4(C)[C@H]3CC[C@@]21C	i	0.94	2.6	-1.8
50	c1cncc(CNC2=NCCC2)c1	i	0.99	-8.3	1.0

no.	RGS16-Gao	INS promoter inh	INS promoter inh cell count
41	103.6	x	x
42	98.0	x	x
43	101.1	x	x
44	92.5	23.3	52.3
45	97.7	x	x
46	104.2	-43.8	64.8
47	99.2	i	15.0
48	102.1	15.4	112.7
49	71.2	0.0	108.6
50	99.0	-7.1	195.5

# Continued:
no.	compound	HSV augment	HSV augment primary fold	PKD1 kinase inh	GALR2 ag
51	COc1ccc(OC)c(N2C(=O)NC(=O)/C(=C/c3ccc([N+](=O)[O-])s3)C2=O)c1	i	1.04	0.9	x
52	Cc1cc(C)c2c(c1)-c1cc(C)nn1C(c1cccnc1)N2 (stereo not given)	i	0.98	-2.8	x
53	CCCCn1c(O)c(C(C)=NCCCN(C)C)c(=O)[nH]c1=O	i	0.78	-9.5	-1.3
54	O=c1c2ccccc2nc(-c2ccco2)n1-c1ccccc1	i	1.03	2.6	-1.7
55	Brc1ccc(C2N3CCCN23)cc1 (stereo not given)	x	x	-3.5	0.1
56	N=C1c2ccccc2CN1CC(=O)c1ccccc1	i	1.07	0.3	-1.1
57	C=COCCn1c(C)c(C(=O)OCC)c2cc(O)ccc21	i	0.88	-7.2	-1.1
58	CCOC(=O)c1c(-n2c(C)cc(/C=C3/C(=O)NC(=O)N(CC)C3=O)c2C)sc2c1CCCC2	i	1.11	-14.9	-2.6
59	CCOP(=O)(OCC)C(NC(=O)C(Cl)Cl)C(Cl)(Cl)Cl (stereo not given)	i	0.85	-6.0	-2.1
60	C[N+]1(C)CCc2cc3c(cc2[C@H]1[C@@H]1OC(=O)c2c1ccc1c2OCO1)OCO3	i	0.83&1.01	-2.0	-1.6

no.	RGS16-Gao	INS promoter inh	INS promoter inh cell count
51	109.0	x	x
52	98.9	x	x
53	99.9	-14.3	46.3
54	112.5	30.4	93.4
55	53.4	i	74.5
56	108.0	x	x
57	99.8	10.0	65.5
58	x	x	x
59	100.7	-8.3	122.8
60	82.8&98.0	31.8	82.5

# The list continues.
no.	compound	HSV augment	HSV augment primary fold	PKD1 kinase inh	GALR2 ag
61	O=S(=O)(F)c1ccc2nc(-c3cccc(Sc4ccccc4)c3)cc(Cl)c2c1	i	0.92	x	x
62	CCOP(=O)(Cc1cc(C#N)oc1C)OCC	i	0.97	6.0	-0.8
63	O=c1[nH]c(=O)n(CC2CCCO2)c(O)c1/C=C1\C=Nc2ccccc21 (stereo not given)	i	1.01&1.05	0.3	-0.1
64	CCOC(=O)c1ccc(N=C(CC)c2c(O)n(C)c(=O)n(C)c2=O)cc1	i	1.07	x	x
65	O=C1CCN(C(=O)CNC(=O)Cc2ccccc2)CC1	i	0.95	-5.7	x
66	CCN(CC)c1ccc(CN(C)CCc2ccc(OC)c(OC)c2)cc1	i	1.13	1.6	-2.0
67	Oc1ccc(/C=N/NP(=S)(c2ccccc2)c2ccccc2)c(O)c1O	i	0.58	2.9	-3.5
68	COC(=O)C(O)(c1ccc(NC(=O)c2ccccc2)cc1)C(F)(F)F (stereo not given)	i	1.09	x	x
69	O=C(Cn1cnc2sc3c(c2c1=O)CCCC3)NCCC(=O)N1CCC2(CC1)OCCO2	i	0.93	-6.3	-3.9
70	CNC(=O)Nc1ccc(C(=O)N/N=C\C23CC[C@@H](O)CC2(O)CC[C@@H]2[C@@H]3CCC3(C)C(C4=CC(=O)OC4)CCC23O)cc1 (stereo not given in full)	i	0.76	x	x
71	NC1=Nc2ccccc2Oc2ccccc21	x	x	1.8	0.5

no.	RGS16-Gao	INS promoter inh	INS promoter inh cell count
61	101.5	x	x
62	36.7	0.0	99.6
63	97.2&98.2	23.5	113.3
64	100.5	x	x
65	101.7	x	x
66	112.3	x	x
67	95.2	8.6	36.0
68	100.1	x	x
69	97.7	-57.1	62.5
70	96.5	x	x
71	131.0	-20.8	73.4
